From PubChem BioAssay
CBX7 AlphaScr – CBX7 chromodomain binding inhibitors, primary screen, biochemical, AlphaScreen; AlphaScreen His6-CBX7 / biotin-H3K27me3 peptide binding; stronger effect = lower value; normalised signal (fraction of DMSO) (no concentration beside the values); 66,000 compounds, 1.1% hits; in the data active means normalised signal below about 0.5;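 further: 100 nL library stock added to about 20 µL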
Target sequence (O95931 whole entry, looked up): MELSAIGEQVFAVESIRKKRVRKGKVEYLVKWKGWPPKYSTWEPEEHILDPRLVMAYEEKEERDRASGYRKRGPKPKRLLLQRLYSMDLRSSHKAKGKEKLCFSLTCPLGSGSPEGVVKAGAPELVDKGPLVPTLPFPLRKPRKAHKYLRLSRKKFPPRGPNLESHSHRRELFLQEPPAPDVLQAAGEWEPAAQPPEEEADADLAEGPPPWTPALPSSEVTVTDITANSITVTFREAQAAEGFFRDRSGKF
CBX7 AlphaScr z-score – recorded beside CBX7 AlphaScr, whose call it bears; z-score; measured here: z-score of CBX7 signal; some inactives read as strong as hits; reference of the scale not given here;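 same signal on another scale; lower means less binding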
The depositor's hits bear a star.

SMILES	CBX7 AlphaScr	CBX7 AlphaScr z-score
CCN(c1cccc(C)c1)S(=O)(=O)c1ccc2c(c1)CCN2C(C)=O	0.983	-0.54
Cc1ccc(C)c(Cc2c(C)nc3nc(SCC(=O)NCCc4ccccc4)nn3c2C)c1	1.11	1.04
O=C(COc1ccc2oc3c(c2c1)CCCC3)Nc1ccncc1	0.985	-0.195
COc1ccc(-n2nnc3c(=O)n(CC(=O)NC4CCCCC4)cnc32)cc1	0.923	-1.48
CCOc1ccc(NC(=O)c2cc3oc(C)cc3n2Cc2ccc(C)cc2)cc1	1.01	0.32
O=C(NCCC1=CCCCC1)c1ccc2c(c1)N(Cc1ccccc1F)C(=O)CS2	1.06	0.965
CC(C)CCn1c(C2CC(=O)N(c3ccc(Br)cc3)C2)nc2ccccc21 (stereo not drawn)	0.967	-0.208
O=C(Cc1c(C(=O)O)[nH]c2ccccc12)Nc1cccnc1	0.947	-1.5
CC1CCN(CCCNC(=O)Cn2ccc3ccccc3c2=O)CC1	1.16	1.4
CCN1C(=O)c2ccccc2S(=O)c2ccc(C(=O)NCc3ccc(C)cc3)cc21 (stereo not drawn)	0.971	-0.745
O=C(NCCc1ccccc1)C1(c2ccccc2)CCOCC1	1.1	2.35
Cc1ccc(Cl)cc1N1CCN(S(=O)(=O)c2ccc3[nH]c(=O)c(=O)[nH]c3c2)CC1	0.813	-0.247
O=C1c2ccccc2C(Nc2ccc(Cl)cc2Cl)N1c1cccnc1 (stereo not drawn)	1	0.0102
Cc1ccccc1Cn1c(C(C)NC(=O)c2cccs2)nc2ccccc21 (stereo not drawn)	0.935	-2.15
COc1ccc(OC)c(NC(=O)c2cnc3sccn3c2=O)c1	1.04	0.442
CCC1=Nc2cc(C(=O)NCCCN(C)c3ccccc3)ccc2Sc2ccc(C)cc21	0.733	-6.95
O=C(Nc1ccc(F)cc1F)c1cc(-c2ccc(O)cc2)on1	1.01	0.331
O=C(NCc1ccccc1Cl)c1ccc2c(c1)N(Cc1ccccc1)C(=O)CS2	0.852	-1.91
COc1cccc(NC(=O)CC2Oc3ccc(C)cc3NC2=O)c1 (stereo not drawn)	1.01	0.263
CCCCNC(=O)c1c[nH]c2ccc(S(=O)(=O)N(C)c3ccc(C(C)C)cc3)cc2c1=O	1.05	0.625
Cc1cc(OCc2nc(-c3ccccc3)no2)cc(C)c1Br	1.1	0.413
Cc1ccc(NC(=O)Cn2cnc3sc4c(c3c2=O)CCCC4)cc1Cl	0.904	-2.57
CCOC(=O)N1CCN(C(=O)C2CC(c3ccc(OC)c(OC)c3)=NO2)CC1 (stereo not drawn)	1.04	1.31
CCCCNC(=O)CSCc1nc(-c2ccccc2Cl)oc1C	0.882	-0.774
CCOC(CNC(=O)c1sc2ncn(Cc3ccccc3F)c(=O)c2c1C)OCC	0.97	-0.186
Further results follow.
SMILES	CBX7 AlphaScr	CBX7 AlphaScr z-score
COc1ccc2c(c1)CCc1c(C(=O)NCc3ccccc3)noc1-2	1.01	0.0444
CCN(CC)S(=O)(=O)c1ccc2c(c1)N(CC(=O)Nc1ccccc1C#N)C(=O)CO2	1.01	0.369
COc1ccccc1-n1nc(C(=O)Nc2cccc(Cl)c2)c2ccccc2c1=O	1.03	0.833
O=C(Nc1ccc(F)cc1)c1oc2ccccc2c1NC(=O)c1c(F)cccc1F	1.04	1.57
Cc1cc(NC(=O)c2ccc3c(c2)NC(=O)c2ccccc2S3)ccc1Br	0.953	-1.32
CC1(C)CC2(CCCN(Cc3nc4c(c(=O)[nH]3)C3(CCCC3)Cc3ccccc3-4)C2)CCO1 (stereo not drawn)	1.01	0.123
COc1ccc(C2=NN(CCC(=O)NC(C)(C)C)C(=O)CC2)cc1	0.999	-0.0228
CCOc1ccc(NC(=O)C2CC(=O)N(c3ccccc3)C2)cc1 (stereo not drawn)	1.04	0.959
COc1ccc(C2C(Oc3ccc(Cl)cc3C)C(=O)N2c2ccc(C)c(C)c2)cc1OC (stereo not drawn)	0.876	-0.973
CCOC(=O)N1CCC(NC(=O)Cn2nc(-c3ccccc3)c3cc(Cl)ccc32)CC1	1.01	0.192
Cc1oc(-c2ccc(Cl)cc2)nc1CN1CCC(C(=O)N2CCOCC2)CC1	0.995	-0.204
COc1cc(Nc2nc(-c3ccccc3F)nc3ccccc23)cc(OC)c1	1.07	0.95
COc1ccc2cc(CCNC(=O)CCC3CCCCC3)c(=O)[nH]c2c1	1	0.0741
CCCC(=O)Nc1cccc(-c2nc3ncccc3o2)c1C	1.01	0.293
CCc1ccc(N(CC(=O)Nc2ccc(C)cc2)S(=O)(=O)c2c(C)noc2C)cc1	0.993	-0.0789
c1ccc(-c2nnc3sc(-c4ccncc4)nn23)cc1	1.01	0.397
Cc1cc(=O)[nH]c(SCC(=O)Nc2nc(-c3ccccc3)cs2)n1	1.12	1.38
COc1ccccc1Nc1nc2nonc2nc1Nc1cccc(Br)c1	1	0.0887
CCc1cccc(NC(=O)Cn2c(SCc3cccc(F)c3)nc3ccncc32)c1	0.941	-1.51
O=C1CSc2ccc(C(=O)NCCN3CCCCCC3)cc2N1	0.888	-1.21
CCOc1ccc(-c2cc(C(=O)NCCCn3ccnc3)c3ccccc3n2)cc1	0.866	-1.72
Cc1oc(-c2ccccc2Cl)nc1CS(=O)(=O)CC(=O)NC(C)c1ccccc1 (stereo not drawn)	1.01	0.69
COc1cccc(NS(=O)(=O)c2ccc3[nH]cc(C(=O)NCc4ccc(C)cc4)c(=O)c3c2)c1	1.16	2.02
CCOc1ccc(NC(=O)c2cnc3scc(C)n3c2=O)cc1	1.02	0.409
CCC(C)NC(=O)c1cnn2c(C)c(Cc3ccc(Cl)cc3)c(C)nc12 (stereo not drawn)	1.34	9.37

Reformatted: results already given.
| Structure | CBX7 AlphaScr | CBX7 AlphaScr z-score |
| --- | --- | --- |
| COc1cccc(NS(=O)(=O)c2ccc3[nH]cc(C(=O)NCc4ccc(C)cc4)c(=O)c3c2)c1 | 1.16 | 2.02 |
| Cc1cc(NC(=O)c2ccc3c(c2)NC(=O)c2ccccc2S3)ccc1Br | 0.953 | -1.32 |
| COc1ccc(C2C(Oc3ccc(Cl)cc3C)C(=O)N2c2ccc(C)c(C)c2)cc1OC (stereo not drawn) | 0.876 | -0.973 |
| O=C1CSc2ccc(C(=O)NCCN3CCCCCC3)cc2N1 | 0.888 | -1.21 |
| c1ccc(-c2nnc3sc(-c4ccncc4)nn23)cc1 | 1.01 | 0.397 |

Continuation:
SMILES	CBX7 AlphaScr	CBX7 AlphaScr z-score
Cc1ccc(-n2nc(C)c3c(C)c(CCC(=O)Nc4ccc(C)c(F)c4)c(C)nc32)cc1	0.904	-0.731
CC1=C(C(=O)Nc2cccc(C)n2)C(c2ccc(F)cc2)C2=C(CC(C)(C)CC2=O)N1 (stereo not drawn)	1.05	0.103
O=C(CCn1nc(-c2ccc(Cl)cc2)c2ccccc2c1=O)NCc1ccccc1	0.97	-0.835
Cc1c(C(=O)NCCC2=CCCCC2)oc2ccc(S(=O)(=O)N3CCC4(CC3)OCCO4)cc12	1.01	0.0612
O=C(Cn1ncc2c1-c1ccccc1OC2)N1CCN(c2ccccc2)CC1	0.981	-0.239
Cc1ccc(C)c(OCc2nnc(NC(=O)c3ccccc3)s2)c1	1.06	0.239
CCOc1ccc(NC(=O)c2c(NCc3ccc(OC)c(OC)c3)sc3c2CCCC3)cc1	0.57	-6.02
CCCCCn1c(C(C)NC(=O)CCC)nc2ccccc21 (stereo not drawn)	1.02	0.273
Cc1ccccc1NC(=O)c1[nH]cnc1C(=O)Nc1ccc(F)cc1	0.986	-0.377
Cc1nnc(SCc2ccc(Cl)cc2)[nH]c1=O	1.03	0.679
CC1=C(C(=O)Nc2ccccn2)C(c2ccc(Br)cc2)n2nnnc2N1 (stereo not drawn)	1.16	1.74
Cc1cccc(-c2noc(Cc3ccccc3)n2)c1	1.41	0.485
Cc1ccc(Nc2c(-c3ccccn3)nc3cccc(C)n23)cc1	0.00144*	-21.6*
CC1CCCCN1CCNC(=O)Cn1ncc2c1-c1ccccc1OC2 (stereo not drawn)	1.15	0.86
O=C(c1c(F)cccc1F)N1CCN(c2ccc3nnc(-c4ccc(F)cc4)n3n2)CC1	0.938	-1.11
Cc1ccc(S(=O)(=O)CCc2nnc(NC(=O)c3ccc(Br)cc3)s2)cc1	1.02	0.763
COc1ccc(NC(=O)CC2Nc3cc(C)c(C)cc3NC2=O)cc1 (stereo not drawn)	0.969	-1.01
COc1cc(NC(=O)c2ccc(F)cc2F)cc(-n2cnnn2)c1	1.07	1.11
COc1ccc(C(=O)NCc2cccnc2)cc1OC	1.1	1.76
Cc1ccc(CN2C(=O)CCC2C(=O)NC(C)c2ccccc2)cc1 (stereo not drawn)	1.04	1.89
CCOc1ccc2c(c1)c(=O)c(S(=O)(=O)c1ccccc1)cn2CC(=O)Nc1ccc(C)cc1	0.753	-3.55
COc1ccc(-c2noc(-c3cccs3)n2)cc1	1.21	7.57
COc1ccc(-c2nc(CN3CCC(C(=O)NCCc4ccccc4)CC3)c(C)o2)cc1OC	1.03	0.722
Oc1ccccc1-c1nc(Nc2ccc(F)cc2)c2ccccc2n1	1.04	0.111
Cc1ccc(-c2noc(CCC(=O)Nc3ccc(C)cn3)n2)cc1	1	0.0517

Reprinted at random: 2 compounds from above, in no set order.
SMILES	CBX7 AlphaScr	CBX7 AlphaScr z-score
COc1ccc(-c2noc(-c3cccs3)n2)cc1	1.21	7.57
Cc1oc(-c2ccccc2Cl)nc1CS(=O)(=O)CC(=O)NC(C)c1ccccc1 (stereo not drawn)	1.01	0.69

Next structures.
SMILES	CBX7 AlphaScr	CBX7 AlphaScr z-score
Cc1ccc(NS(=O)(=O)c2ccc3[nH]c(=O)c(=O)[nH]c3c2)cc1	0.994	-0.153
Cc1cc(NC(=O)CSc2nncn2C)no1	0.991	-0.471
Cn1nc(-c2ccc(C(=O)N3CCOCC3)cc2)c2ccccc2c1=O	1.02	0.898
Nc1ccccc1-c1nnc(N2CCCCC2)o1	0.982	-0.714
Cc1cccc(C(=O)N2CC(=O)Nc3ccc(C)cc3C2c2ccc(F)cc2)c1 (stereo not drawn)	1.11	1.03
CC(c1ccccc1)N1C(=O)CCC1(C)C(=O)NC1CCCC1 (stereo not drawn)	1.03	0.478
COC(=O)C(C)Sc1nnc(Cc2cc(=O)[nH]c(=O)[nH]2)n1-c1cccc(C)c1 (stereo not drawn)	1.07	0.279
CC(C)(CC(=O)N1CCN(Cc2ccc3c(c2)OCO3)CC1)CC1=NS(=O)(=O)c2ccccc2N1	1.04	0.918
COc1ccc(N(CC(=O)Nc2cccc(OC)c2)S(=O)(=O)c2c(C)nn(C)c2C)cc1	1.1	0.7
CCc1ccc(CNC(=O)Cn2nc(-c3ccc(C)cc3)ccc2=O)cc1	0.974	-0.921
Cc1nc2c(C(=O)N3CCCC3)c[nH]n2c(=O)c1Cc1ccccc1F	0.976	-0.548
COCc1nc2ccccc2n1Cc1ccc(Br)cc1	0.903	-1.76
CCN(CCCNC(=O)CCc1nc(-c2ccc(OC)cc2)no1)c1cccc(C)c1	0.415*	-12.5*
COCCN1Cc2cccc(C(=O)Nc3cccc(OC)c3)c2C1=O	1.16	1.92
CSc1c(CC(=O)NCCO)n(C)c2ccc(C)cc12	1.02	0.927
CCOC(=O)c1c(NC(=O)c2ccc(S(=O)(=O)N(C)C)cc2)sc2c1CCN(C)C2	1.04	2.31
Cc1ccc(-c2ccc(=O)n(CCC(=O)NCCN(C)Cc3ccccc3)n2)cc1	1.02	0.919
CC1CCc2oc3ccc(NS(=O)(=O)c4cccs4)cc3c2C1 (stereo not drawn)	0.643	-0.998
COc1ccc(NC(=O)CSc2nc3nc(C)c(Cc4ccc(C)cc4)c(C)n3n2)cc1OC	0.798	-2.18
Cc1c(C(=O)Nc2ccc3oc(-c4cccnc4)nc3c2)sc2ccccc12	1.03	1.27
COC(=O)CNc1c(-c2ccccn2)nc2ccccn12	0.281*	-29*
Cn1c(CSc2nc3ccccc3n2-c2ccccc2)nc2ccccc21	0.958	-1.72
CN1C(c2ccc(Br)cc2)=NN=C(c2ccccc2)c2cc(Cl)ccc21	0.634	-5.31
O=C(COc1ccc(Cl)cc1Cl)Nc1c(-c2ccccc2)nc2ccccn12	0.899	-0.976
CCC(=O)Nc1ccc(-c2nc3ncccc3o2)cc1	1.05	1.78

Reprinted from the part before: five compounds, then new ones.
SMILES	CBX7 AlphaScr	CBX7 AlphaScr z-score
COC(=O)CNc1c(-c2ccccn2)nc2ccccn12	0.281*	-29*
Cn1c(CSc2nc3ccccc3n2-c2ccccc2)nc2ccccc21	0.958	-1.72
CN1C(c2ccc(Br)cc2)=NN=C(c2ccccc2)c2cc(Cl)ccc21	0.634	-5.31
O=C(COc1ccc(Cl)cc1Cl)Nc1c(-c2ccccc2)nc2ccccn12	0.899	-0.976
CCC(=O)Nc1ccc(-c2nc3ncccc3o2)cc1	1.05	1.78
COC(=O)Cc1nc(NCc2ccccc2)c2c3c(sc2n1)CCCC3	0.707	-0.292
CCc1cccc(C)c1NC(=O)CN1C(=O)CSc2ccc(S(=O)(=O)N(CC)CC)cc21	1.01	0.465
Cc1cccc(-n2nc3c(c2NC(=O)c2ccc(Cl)cc2)CSC3)c1C	1.04	0.76
COc1ccc(-c2cc(C(F)(F)F)nc(N3CCCCCC3)n2)cc1OC	1.38	15.5
COc1ccc(OCCCCCCc2c(C)n[nH]c2C)cc1	0.433*	-20.2*
COc1ccc(-n2nc(C(=O)Nc3cccc(C(F)(F)F)c3)c3ccccc3c2=O)cc1	0.975	-0.658
COc1ccc(C)cc1NC(=O)CCCOc1cc(=O)n(C)c2ccccc12	0.836	-2.69
COc1ccc(NC(=O)CSc2nc3nc(C)c(Cc4ccccc4C)c(C)n3n2)cc1OC	0.766	-2.51
Cn1cnc(S(=O)(=O)NCc2cccs2)c1	1.04	1.69
COC(=O)c1cc2ccsc2n1Cc1ccccc1C	1.18	5.28
Cc1c(C(=O)Nc2cccc(Cl)c2)sc2ncn(CC(=O)N3CCC(C)CC3)c(=O)c12	0.831	-1.81
O=C1C2C3c4ccccc4C(c4ccccc43)C2C(=O)N1c1ccc(O)cc1 (stereo not drawn)	0.918	-0.975
COc1ccccc1CNC(=O)C1CCN(S(=O)(=O)c2cccc3nonc23)CC1	0.978	-0.0293
O=C(NCCC1=CCCCC1)c1cc(-c2ccncc2)nc2ccccc12	0.926	-0.83
CCCCNC(=O)c1cc(Sc2nnc(C)s2)nc2ccccc12	1.08	1.35

This is a subset; rates above refer to the full screens.
